HNF4A DNA FP = change in binding of human HNF4 alpha to DNA | HNF4a-FITC DNA binding, fluorescence polarization, 1 h | activity change, % at 10 µM | 0.3% of 360,000 active; in the data active means activity change above about 30%, passing the limit was not always enough;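 further: controls were the assay level and a saturating level of protein; the project sought stronger binding though the title names inhibitors; some compounds called inactive have numbers as strong as hits; positive values seem to mean higher polarization but the record does not say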
E coli growth = inhibitors of Escherichia coli growth | OD600, 23 h; active compounds read low | OD600 absorbance (no concentration beside the values) | 0.21% of 330,000 active;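 active means OD600 absorbance below the run mean of sample wells minus 3.6 SD, in any replicate, cut at about 0.56 in these data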;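 further: stock transfer was 300 nL into about 60 µL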
Vif TR-FRET = HIV-1 Vif–A3G interaction blockers – biochemical, TR-FRET, GST-Vif 1-94, biotin-A3G peptide, dose response retest, primary screen (AID 1117319). TR-FRET GST-Vif / biotin-A3G peptide binding; higher % means a stronger effect; test concentration not given here; strong numbers were not always called active. inhibition, %, or IC50 in µM where a hit was titrated. 0.57% of 260,000 active;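 active means above the screen mean plus three standard deviations and confirmed in dose response; inconclusive means results disagree or hit not tested in dose response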;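 further: Vif residues 1-94 fused to GST binding biotinylated APOBEC3G peptide 110-148; 0% = full assay without inhibitor and 100% = GST in place of GST-Vif; retest series ran down from 100 µM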
Bfl-1 A1 inh = inhibitors of the anti-apoptotic protein A1, read as caspase activation | caspase activation, % (no concentration beside the values) | MEF A1-2A-BIM cells, Caspase-Glo 3/7 luminescence, 3 h; percent of clofoctol response, vehicle zero | 0.066% of 330,000 active | AID 2462;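 active means over half of replicate activation scores above 10%, or exactly half above 10 with the replicate mean above 10; inconclusive means replicate mean below 10 yet half the replicates above 10; inactive means over half of replicates below 10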;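 further: wells of about 30 µL received 50 nL stock; many hits fall short of the cut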
B2AR ag = activates human beta-2 adrenergic receptor causing internalization; response, % (concentration not given with the values); AID 504454; 0.43% of 340,000 active; P07550; Am2.2-beta2AR cells, FAP receptor internalization, flow cytometry; reference of the scale not given here;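 active means response above a set limit, near 3 SD of response in nonfluorescent compounds, cut at about 42% in these data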;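 further: stock transfer was 100 nL into about 11 µL; a reference agonist was the positive control; negative values mostly stem from fluorescent compounds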
Target sequence (P07550 whole entry, looked up): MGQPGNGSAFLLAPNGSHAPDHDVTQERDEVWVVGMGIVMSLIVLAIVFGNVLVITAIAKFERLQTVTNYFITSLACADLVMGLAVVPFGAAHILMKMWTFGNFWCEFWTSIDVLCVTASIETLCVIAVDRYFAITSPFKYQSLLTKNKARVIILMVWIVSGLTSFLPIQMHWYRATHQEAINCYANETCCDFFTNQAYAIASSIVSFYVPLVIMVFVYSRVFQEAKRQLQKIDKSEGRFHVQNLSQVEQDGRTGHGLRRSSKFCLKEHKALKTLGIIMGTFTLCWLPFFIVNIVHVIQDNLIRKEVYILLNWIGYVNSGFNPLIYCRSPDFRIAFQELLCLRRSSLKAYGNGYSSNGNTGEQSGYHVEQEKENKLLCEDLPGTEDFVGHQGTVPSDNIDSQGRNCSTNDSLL
LANA-H2B inh = blocks KSHV LANA binding to histone H2A/H2B; Q9QR71; cell-free LANA-H2A/H2B peptide, fluorescence polarization; inhibition, % (test concentration not listed); 0.6% of 320,000 active; in the data active means inhibition mostly above about 10%, no sharp cut-off; inactive means mostly below about 6.7%;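 further: stock transfer was 7.5 nL into about 10 µL; 0% = median of vehicle wells and 100% = median of positive control wells; one replicate is shown; the record names a cut of 25% in any replicate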
UCH37 inh = inhibitors of human deubiquitinating enzyme UCH37 | Q9Y5K5 | purified proteasome/UCH37, Ub-AMC cleavage fluorescence | inhibition, % (concentration not given with the values) | 0.33% of 330,000 active;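 active means mean of two replicates above 20%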;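 further: 0% = compound-free wells with enzyme and 100% = wells lacking proteasome; stock transfer was 100 nL into about 20 µL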
Target sequence (Q9Y5K5 whole entry, looked up): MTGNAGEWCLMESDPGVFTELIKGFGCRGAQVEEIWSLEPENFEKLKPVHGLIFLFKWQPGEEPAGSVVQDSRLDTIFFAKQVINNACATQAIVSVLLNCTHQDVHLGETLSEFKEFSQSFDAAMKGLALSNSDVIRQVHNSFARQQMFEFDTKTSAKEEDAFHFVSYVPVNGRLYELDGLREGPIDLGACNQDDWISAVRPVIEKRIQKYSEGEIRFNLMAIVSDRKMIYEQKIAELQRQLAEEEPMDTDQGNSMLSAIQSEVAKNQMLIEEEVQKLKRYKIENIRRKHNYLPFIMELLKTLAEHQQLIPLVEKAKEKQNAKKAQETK
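Reagent: Ub-AMC substrate; assay system: Proteasome-associated human UCH37 deubiquitinase; controls: no-proteasome and no-compound wells; read-out: % inhibition of Ub-AMC cleavage fluorescence; timing: 30 min preincubation with enzyme, 25 min cleavage at room temperature; signal: AMC fluorescence from Ub-AMC cleavage, excitation 355 nm, emission 460 nm; buffer or medium: Tris-HCl pH 7.4 plus ovalbumin, ATP-MgCl2, DTT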
An asterisk follows results filed as active; ? = inconclusive; . = not tested or not shown; & = joins results of further samples. Random draw from the library (roughly 2.1% active in at least one column).

| compound | HNF4A DNA FP | E coli growth | Vif TR-FRET | Bfl-1 A1 inh | B2AR ag | LANA-H2B inh | UCH37 inh |
| --- | --- | --- | --- | --- | --- | --- | --- |
| O=c1c2ccccc2nnn1CSc1nnnn1-c1ccc(O)cc1 | -0.3 | 0.7 | ? | -0.5 | 4 | 4.0 | 4.2 |
| COc1ccc(N2CCN(CCNC(=O)Nc3cc(Cl)ccc3OC)CC2)cc1 | 0.2 | 0.63 | -11% | -0.1 | 10 | -4.8 | 2.7 |
| Cc1cc(SCC(=O)c2ccc(O)c(O)c2)n2nc(C)c(-c3ccccc3)c2n1 | -6.0 | 0.68 | 20% | 1.7 | 10 | 8.4 | 0.6 |
| CCCCNC(C(=O)Nc1ccc([N+](=O)[O-])cc1Br)c1ccccc1 (stereo not given) | -0.2 | 0.7 | -1% | 2.4 | -5 | -0.3 | 3.9 |
| CCOC(=O)C1CCN(C(=O)COc2cccc(C)c2)CC1 | 1.7 | 0.69 | 2% | -0.1 | 4 | -1.2 | 6.1 |
| O=C(CCc1ccc(S(=O)(=O)NC2CCCCC2)cc1)NCc1ccccn1 | -0.1 | 0.69 | -1% | -0.6 | -1 | -1.5 | 0.1 |
| Cc1csc(NC(=O)CCn2c(=O)sc3ccccc32)n1 | 0.8 | 0.69 | -2% | 0.1 | -7 | -3.7 | 4.8 |
| S=c1nc(-c2ccccc2)oc2c1CCCC2 | 2.9 | 0.69 | 2% | -0.9 | 2 | 2.4 | 3.3 |
| CCOc1ccccc1C(=O)NCC(=O)O | 0.3 | 0.76 | 7% | 0.0 | 0 | 8.7 | -0.8 |
| O=[N+]([O-])c1cc(-n2cccc2)ccc1N1CCOCC1 | 2.2 | 0.7 | . | 0.6 | -6 | 1.5 | 6.2 |
| Cc1csc(CNc2ncnc3ccc(-c4ccc5c(c4)OCCO5)cc23)c1 | -1.4 | 0.75 | . | 1.2 | 3 | -8.5 | 1.9 |
| Cc1[nH]c(=O)[nH]c(=O)c1/C=N/NC(=O)CCNC(=O)OC(C)(C)C | 0.3 | . | -3% | 1.1 | -5 | 0.9 | . |
| Cc1ccc2c(c1)C(O)(CC(=O)c1ccc(C)s1)C(=O)N2 (stereo not given) | 5.8 | . | 5% | -0.2 | 7 | 90* | . |
| CCCCCC/C(=N/O)c1ccccn1 | 0.7 | . | -4% | -2.6 | 8 | 2.1 | . |
| Cc1ccc(N=C2NC(=O)C(CC(=O)NCc3ccccc3)S2)cc1C (stereo not given) | 0.8 | 0.7 | -5% | -0.5 | 6 | -6.4 | 5.5 |
| Cc1cc2ncn(C(=O)N3CCC(C)CC3)c2cc1C | 1.0 | 0.66 | 26% | 0.1 | 6 | -0.2 | -0.6 |
| CCOC(=O)Cn1c(=O)cnc2ccccc21 | -1.4 | 0.76 | 4% | 0.6 | -3 | -0.3 | -17 |
| C[N+]1(CCn2ccc3ccccc32)CCCCC1 | 4.1 | 0.67 | -3% | 1.0 | -2 | 0.2 | 2.0 |
| CCCCN1C(=O)C(=O)N(CC(=O)N2N=C3/C(=C/c4ccco4)CCCC3C2c2ccco2)C1=O (stereo not given) | 2.9 | 0.69 | 3% | -2.2 | -2 | 3.7 | 2.2 |
| COc1ccc(-c2nc3ccc(N4CCCC4)cc3c(=O)[nH]2)cc1OC | 7.0 | 0.66 | 4% | -0.6 | -15 | 2.3 | -264 |
| CN(c1ccccc1)S(=O)(=O)c1ccc(Cl)c(C(=O)NC2=NCCS2)c1 | 0.4 | 0.7 | -3% | 0.6 | -9 | -4.5 | -0.1 |
| CC(=O)Nc1ccc(S(=O)(=O)Nc2nc3ccccc3nc2N2CCOCC2)cc1 | -1.3 | 0.67 | -14% | 0.1 | 1 | -2.6 | 7.9 |
| CN(C(=O)COC(=O)Cc1c(F)cccc1Cl)c1c(N)n(Cc2ccccc2)c(=O)[nH]c1=O | 0.4 | 0.65 | . | -0.7 | -3 | 2.7 | 5.1 |
| O=C(CCCn1c(=O)c2sccc2n(Cc2ccc(F)cc2)c1=O)NCc1ccco1 | 3.6 | 0.71 | -36%&-26% | 0.0 | 8 | -0.5 | 4.8 |
| CCn1c(CNc2ccc(Cl)cc2)nnc1SCCN1CCCCC1 | -1.1 | 0.7 | -4% | 0.4 | 1 | 5.1 | -5.8 |
| Cc1cc(Nc2cc(F)ccc2C)n2nc(C)nc2n1 | -1.1 | 0.77 | 20% | 0.5 | 8 | -2.3 | 0.2 |
| CSc1ccc(/C=N/NC(=O)CNc2ccc3ccccc3c2)cc1 | 2.1 | . | 6% | 0.9 | 4 | 0.3 | . |
| CC1SC(=NC(=O)c2ccncc2)NC1=O (stereo not given) | 0.4 | 0.7 | -11% | 1.0 | 1 | -2.5 | 0.9 |
| Cc1ccccc1C(=O)Nc1nnc(CC(=O)N/N=C/c2cn(Cc3ccccc3)c3ccccc23)s1 | -0.2 | . | ? | -0.2 | -3 | -2.6 | . |
| C#CC(C)(C)NC(=O)c1ccc(-c2ccccc2F)cc1 | 1.2 | 0.63 | -8% | -0.3 | 1 | -1.1 | 3.4 |
| CCn1c(=O)c(CCC(=O)N2CCN(c3ccccn3)CC2)c(C)c2c(C)nn(-c3cccc(C)c3)c21 | 3.9 | 0.77 | . | 0.5 | 14 | -5.8 | 5.2 |
| COC(=O)c1ccc(NS(=O)(=O)NC(=O)c2c[nH]c3ccccc23)cc1 | 3.9 | 0.68 | . | -0.8 | -1 | -2.3 | 0.6 |
| COc1ccc(CNC(=O)CN(C(=O)c2snc(C(N)=O)c2N)c2ccc(F)cc2)cc1 | 1.2 | 0.71 | . | -0.1 | 47* | 2.3 | -17 |
| Cc1ccc(SCc2cc(=O)[nH]c(SCC(=O)Nc3cc(Cl)ccc3Cl)n2)cc1 | -2.6 | 0.68 | 26% | -0.1 | -2 | -1.2 | 3.2 |
| CCOc1cccc2cc(C(=O)N3CCc4ccccc43)c(=O)oc12 | 6.1 | 0.71 | -5% | -0.1 | 9 | -11 | 2.9 |
| CN(CC(=O)Nc1ccc(F)c(F)c1F)C(=O)CCN1C(=O)C2CCCCC2C1=O (stereo not given) | 0.0 | 0.7 | -7% | 0.2 | 1 | 2.6 | 1.3 |
| COc1ccccc1N1CCN(C(=O)CN(CCc2ccccc2)S(C)(=O)=O)CC1 | 1.3 | 0.7 | 2% | 0.3 | -18 | -4.2 | 1.2 |
| CCCCNC(=O)CSc1cc(=O)n(C)c2ccccc12 | -2.2 | 0.73 | 0% | 0.8 | -6 | 0.8 | 2.7 |
| COc1cc(C2NC(=O)C(C#N)=C(Nc3cccc(C)c3)S2)ccc1O (stereo not given) | 1.1 | 0.63 | -2%&22% | -0.8 | -5 | 0.8 | 7.1 |
| CCOC(=O)[C@@H]1[C@H]2COc3cc(OC)ccc3[C@@H]2N2C(=O)N(c3ccc(OC)cc3)C(=O)[C@]12C | -2.3 | . | . | 0.4 | 1 | -7.0 | 2.9 |
| Nc1nc(COC(=O)CCC(=O)c2ccccc2)nc(Nc2ccccc2)n1 | 30 | 0.68 | -8% | . | -3 | . | 4.3 |
| CCOc1cc(/C=N/n2cnnc2)ccc1OCC(=O)Nc1ccccc1OC | 4.7 | . | -2% | -0.8 | -7 | 1.2 | . |
| CCN1C(=O)[C@H]2[C@@H](c3ccc(-c4cc(C(C)=O)cs4)cc3)N3CCCC[C@@]3(C(=O)OC)[C@H]2C1=O | 0.8 | . | . | 0.3 | 9 | 2.4 | -0.7 |
| O=C(COC(=O)CCC1CCCC1)Nc1nc2c(F)c(F)c(F)cc2s1 | 6.7 | 0.7 | ? | -0.2 | -6 | -1.0 | 1.0 |
| CCc1ccc(-c2cc(C)no2)cc1S(=O)(=O)Nc1cc(C)ccn1 | -1.1 | 0.68 | . | 0.4 | 2 | 3.8 | -3.3 |
| O=S(=O)(c1ccccc1)c1nc(-c2cccs2)oc1NCc1cccnc1 | 0.9 | 0.68 | . | -1.6 | 2 | -8.6 | 3.2 |
| Cc1cc(C)c2cc(C(c3nnnn3CC3CCCO3)N3CCN4CCCC4C3)c(=O)[nH]c2c1 (stereo not given) | 5.1 | 0.68 | 0%&-2% | 1.0 | 10 | -3.9 | -9.7 |
| CCCN1C(=O)c2ccc(C(=O)Nc3nccs3)cc2C1=O | -2.5 | 0.67 | 6% | -0.8 | -18 | 2.1 | 2.3 |
| Cc1ccc2nc(NC(=O)c3ccc(OCC4CCCO4)cc3)sc2c1 (stereo not given) | -2.1 | 0.7 | . | 1.4 | 8 | 3.8 | -3.2 |
| CCOC(=O)c1cc(C)n(Cc2ccc(OCC)c(OC)c2)c1C | -4.5 | 0.69 | 0% | 0.4 | 1 | -2.8 | 0.4 |

More compounds:
| compound | HNF4A DNA FP | E coli growth | Vif TR-FRET | Bfl-1 A1 inh | B2AR ag | LANA-H2B inh | UCH37 inh |
| --- | --- | --- | --- | --- | --- | --- | --- |
| O=C(Nc1ccc(CN2CCOCC2)cc1)c1cc2ccccn2n1 | -2.0 | 0.74 | -1% | -5.0 | -8 | -0.7 | 0.7 |
| CC(=O)Nc1ccc(NC(=O)c2ccc(N(Cc3ccccc3C)S(C)(=O)=O)cc2)cc1 | 1.0 | 0.7 | . | 0.0 | -1 | -1.1 | 2.1 |
| CCOC(=O)C1CCN(C(=O)COC(=O)c2cc(-c3cccs3)nn2-c2ccccc2)CC1 | 0.1 | 0.64 | -3% | 0.8 | -2 | -1.8 | 5.1 |
| Cc1cc(C)n2nc(CC(=O)NCc3ccccc3Cl)nc2n1 | 1.2 | 0.71 | -2% | 0.9 | 3 | 0.5 | -5.1 |
| O=C(NCc1ccccc1)c1ccc(CS(=O)Cc2ccc(Cl)cc2)o1 (stereo not given) | -2.0 | 0.58 | . | -0.6 | 3 | -1.0 | 1.3 |
| CCCn1nnnc1SCC(=O)N(C(C)C)C(C)C | -0.3 | 0.68 | 0% | -0.5 | -24 | -5.2 | -0.1 |
| CCOc1ccc([N+](=O)[O-])cc1CNC1CCCCCCC1 | -4.7 | 0.66 | . | 0.0 | -4 | 0.8 | 3.2 |
| O=C(c1ccc2c(c1)OCO2)N1CCN(c2ccc(Cl)cc2)CC1 | -1.1 | 0.71 | 20% | 0.6 | 0 | -0.2 | 2.2 |
| Cc1cc(NC(=O)COC(=O)CCNS(=O)(=O)c2c(Cl)cccc2Cl)no1 | -6.9 | 0.65 | . | 0.9 | 0 | 1.4 | 0.4 |
| Cc1cc(C)c(-n2c(SCC(=O)N3CCOCC3)n[nH]c2=O)c(C)c1 | -0.8 | 0.6 | 2% | 0.3 | -6 | 4.4 | 2.2 |
| CCOC(=O)CCc1c(C)nc2cc(-c3ccc(F)cc3)[nH]n2c1=O | -1.8 | 0.71 | 5% | 2.0 | 25 | -0.6 | 0.1 |
| CC(C)Oc1ccc(C(=O)OCC(=O)NC2CCCCCC2)cc1 | 3.8 | 0.69 | 5% | 3.1 | 17 | 2.7 | 4.5 |
| O=C(COC(=O)Cc1ccc(Cl)cc1)NCc1ccc2c(c1)OCO2 | 1.0 | 0.67 | -4% | . | -3 | . | -2.4 |
| COc1ccc(CCNC(=O)COC(=O)Cn2cnc3ccccc3c2=O)cc1 | 2.1 | 0.71 | 5% | -0.1 | 1 | 6.5 | 2.3 |
| CCOC(=O)C1CCCN(CC(=O)Nc2cc(C)cc(C)c2)C1 (stereo not given) | 0.6 | 0.7 | 7% | 0.1 | -1 | -4.7 | 0.3 |
| COc1ccccc1CNC(=O)c1ccc(CS(=O)(=O)c2ccc(C)cc2)o1 | -2.5 | 0.72 | . | 0.3 | 3 | -3.0 | 0.4 |

Screening results from PubChem BioAssay.
